# Assay outcomes (PubChem BioAssay)
# Kir21 block – blocks the mouse Kir2.1 inward-rectifier potassium channel | P35561 | HEK293-Kir2.1, FluxOR thallium flux fluorescence; stronger effect = lower value | B-score at 10 µM | 310,000 tested, 0.85% active | AID 1672;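 active = fluorescence ratio B-score at or below minus 3 SD of library scores, with starting-brightness B-score within 2 SD, cut at about -4.2 in these data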;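 also: channel flux triggered by added potassium and thallium sulfate stimulus; B-score of peak minus minimum fluorescence over baseline after thallium stimulus; more negative B-score means stronger Kir2.1 block with less thallium influx; some compounds called inactive have numbers as strong as hits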
# Target sequence (P35561 whole entry, looked up): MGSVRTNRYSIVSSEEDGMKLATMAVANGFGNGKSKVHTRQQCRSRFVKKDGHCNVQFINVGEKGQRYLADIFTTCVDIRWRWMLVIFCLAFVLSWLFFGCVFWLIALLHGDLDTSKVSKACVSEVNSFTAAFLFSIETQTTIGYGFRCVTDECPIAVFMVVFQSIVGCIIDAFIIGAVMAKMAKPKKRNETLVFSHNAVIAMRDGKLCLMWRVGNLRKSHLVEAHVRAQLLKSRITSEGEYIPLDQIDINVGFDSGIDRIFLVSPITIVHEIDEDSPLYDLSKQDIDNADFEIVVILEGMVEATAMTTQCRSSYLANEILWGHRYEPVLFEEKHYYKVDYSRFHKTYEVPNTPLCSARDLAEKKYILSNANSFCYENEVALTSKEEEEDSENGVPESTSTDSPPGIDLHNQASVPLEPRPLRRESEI
# * hit, by the source's call. This is a subset, and most or all hits are left out here.
SMILES,Kir21 block
COC/C=C/C1=CC2=CC(=O)C(C)(OC(=O)c3cnc4ccccc4n3)C(=O)C2=CN1c1ccc(OC)cc1 (centres undefined),0.58
O=C(Cn1cnc2scc(-c3ccccc3)c2c1=O)NCc1ccco1,1.4
COc1ccc(NC(=O)Nc2cc3oc4ccccc4c3cc2OC)cc1,-0.44
CCOC(=O)CCC(=O)Nc1ccc(S(=O)(=O)N2CCc3ccccc32)cc1,0.76
CCCCN(C)CCCNC(=O)c1cc(-c2cccs2)nc2ccccc12,0.66
O=C(COC(=O)c1ccc(Cl)c(S(=O)(=O)N2CCc3ccccc3C2)c1)Nc1ncc(Cl)cc1Cl,0.92
O=C(Nc1cccc(F)c1)C1CCN(C(=O)N2CCOc3ccccc32)CC1,0.09
CC(C)(C)OC(=O)CC12CCCCC1NC(=O)O2 (centres undefined),1.4
COc1cc(CNCc2ccc3c(c2)OCO3)c([N+](=O)[O-])cc1OC,0.08
Cc1cccc(C)c1NC(=O)C(NS(=O)(=O)c1cccs1)c1ccccc1 (centres undefined),2.5
Nc1cc(Cl)nc(N/N=C/c2ccc([N+](=O)[O-])cc2)n1,-1.8
CCOc1ccc(NC(=O)Nc2cnccn2)cc1,0.18
Cc1ccc(F)cc1NC(=O)Cc1nn(C)c(=O)c2ccccc12,1.4
Cc1nc(C)c(-c2csc(Nc3ccc(O)c(C(=O)O)c3)n2)s1,1.1
COc1ccc(C)cc1S(=O)(=O)NC(C)C(=O)NC1CC1 (centres undefined),0.49
COc1ccc(C(C)C)cc1S(=O)(=O)Nc1ccncc1,-0.29
O=c1oc2ccccc2cc1-c1ccccc1,0.5
Cc1ccccc1N=C1NC(=O)C(CO)(CO)S1,-0.2
CC(=O)C1=C(O)C(=O)N(CCC(=O)O)C1c1cccc(F)c1 (centres undefined),0.35
CC1(C)CC(=O)c2cnc(N3CCc4ccccc43)nc2C1,0.51
NC(=O)c1ccc(N2CCC(C(N)=O)CC2)c([N+](=O)[O-])c1,2.1
Cc1ncc(CO)c(CNc2ccc(Oc3ccccc3)cc2)c1O,0.54
CCOc1ccc(CCNC(=O)Cn2ccc3ccccc3c2=O)cc1OCC,0.03
Cc1nc(C)n(C)c(=O)c1-c1ccccc1,2.1
Cc1sc2ncn(CC(=O)NCC(=O)N(C)C3CCCCC3)c(=O)c2c1C,2.2
# Further results
SMILES,Kir21 block
COc1cccc(NC(=O)NCCCSC2CCCCC2)c1,0.25
Cc1nc(SCC(=O)NCc2ccc3c(c2)OCO3)c(C#N)c2c1CCCC2,-2.2
O=C1c2ccccc2-c2n[nH]c(=O)c3ccc(N4CCCCC4)c1c23,-1.6
C/C(=N\NS(=O)(=O)c1c(C)cc(C)cc1C)c1ccncc1,-1.4
Brc1cc2[nH]cnc2c2ccccc12,-0.31
O=c1oc(Nc2ccc(F)cc2)nc2ccccc12,-0.68
O=C(Nc1ccccc1)C1CCN(S(=O)(=O)c2ccc3c(c2)OCCO3)CC1,-0.04
CCn1c2ccccc2c2cc(NC(=O)COC(=O)c3cccc(S(=O)(=O)NC)c3)ccc21,0.45
CCSC1=NCN(CCCC(=O)O)CN1,0.18
Cc1ccc(C)c(S(=O)(=O)N2CCN(C(=O)c3ccncc3)CC2)c1,-1
CCc1nn(C(CC)C(=O)NCCCc2ccccc2)c(=O)c2cc3occc3n12 (centres undefined),-1.1
COC(=O)c1cc(S(=O)(=O)N2CCN(c3ccc(F)cc3)CC2)c[nH]1,0
COc1ccc(-c2cc(C(F)(F)F)nc(NC3CCCC3)n2)cc1OC,-1.4
Cc1ccc(NC(=O)CSc2ccc(-c3ccccn3)nn2)c(C)c1,-0.03
CCCC(=O)Nc1ccc(C(=O)NN2C(=O)c3ccccc3C2=O)cc1,0.63
CC(OC(=O)CCc1c[nH]c2ccccc12)C(=O)c1ccccc1 (centres undefined),-1.3
NC1=NC(=O)C(Cc2ccc(OC(F)(F)F)cc2)S1 (centres undefined),0.51
Cc1ccc(CNC(=O)CN2C(C)CCCC2C)cc1 (centres undefined),0.98
Cc1ccc(CSCCNC(=O)c2cccc([N+](=O)[O-])c2)cc1,0.1
O=C(N/N=C/c1cccnc1)c1cc(-c2ccccc2OCc2ccccc2)n[nH]1,-0.81
O=c1c2ccccc2[nH]c(=S)n1CCCn1ccnc1,-0.33
CC(OC(=O)CCN=C1NS(=O)(=O)c2ccccc21)C(=O)NC1CCCCC1C (centres undefined),1.3
O=C(Nc1ccncc1)c1ccc(F)cc1,0.41
CCN(C(=O)CSc1nnc(-c2ccccc2)n1C)C1CCS(=O)(=O)C1 (centres undefined),1.7
CCCn1nc(NC(=O)c2ccco2)c2cc3ccc(C)cc3nc21,1.7

# Ordered by the number under Kir21 block (ascending): five of the compounds above.
SMILES,Kir21 block
CC(OC(=O)CCc1c[nH]c2ccccc12)C(=O)c1ccccc1 (centres undefined),-1.3
O=c1oc(Nc2ccc(F)cc2)nc2ccccc12,-0.68
COC(=O)c1cc(S(=O)(=O)N2CCN(c3ccc(F)cc3)CC2)c[nH]1,0
Cc1ccc(CSCCNC(=O)c2cccc([N+](=O)[O-])c2)cc1,0.1
NC1=NC(=O)C(Cc2ccc(OC(F)(F)F)cc2)S1 (centres undefined),0.51

# Next part
SMILES,Kir21 block
Cc1ccc(-c2c[n+](CC(=O)Nc3cc(=O)n(C)c(=O)n3C)c3n2CCC3)cc1,0.34
O=C(CSc1nc2ccccc2n1CC(=O)N1CCCC1)N1CCN(C(=O)c2ccco2)CC1,-0.46
O=C(Nc1ccc(Cl)cc1C(=O)NCC1CCCO1)c1ccc(Cl)cc1Cl (centres undefined),1.8
c1ccc(Cn2nnnc2CN2CCN(Cc3ccc4c(c3)OCO4)CC2)cc1,-1.6
CCn1c(COc2ccccc2)nnc1SCC(=O)NCc1ccco1,-0.66
Nc1ccc(Br)cc1-c1nc2ccccc2[nH]c1=O,-0.71
CCS(=O)(=O)N1CCCC(C(=O)NCCCOC)C1 (centres undefined),-2.7
O=C(N/N=C\c1cccnc1)c1ccc(Cl)cc1Cl,0.33
c1cncc(-c2nnc(-c3cccs3)o2)c1,0.25
CCCCNC(=O)C(=O)NCCCn1ccnc1,-0.12
Cc1cnc(C(=O)OCC(=O)NCc2ccccc2)cn1,-0.03
N#C/C(=C/c1cn[nH]c1-c1ccc(Br)cc1)C(=O)O,0.01
Cc1cc(C)cc(N(CC(=O)N2CCC(C)CC2)S(C)(=O)=O)c1,-0.66
CCCc1nnc(NC(=O)Cn2cnc3ccccc3c2=O)s1,-0.2
Cc1ccc(C(=O)N(c2ccccn2)C(C)c2ccco2)cc1 (centres undefined),-0.9
COc1cc(/C=C/c2ccc3cccc(O)c3n2)cc(Cl)c1OC,0.25
CN(C)c1ccc(/C=C/c2nc3ccccc3c(=O)[nH]2)cc1,-0.26
Cc1ccccc1OCCC(=O)Nc1ccc(S(=O)(=O)N(C)C2CCN(C)CC2)cc1,-1.2
O=C(CCN1CCN(c2ccccc2)CC1)N/N=C/c1ccc([N+](=O)[O-])o1,1.1
CC(=O)Nc1c(O)nc(SCC(=O)Nc2sc3c(c2C#N)CCCCCC3)[nH]c1=O,0.12
CC1CCCCN1CC(=O)c1c(N)n(Cc2ccccc2)c(=O)n(C)c1=O (centres undefined),-0.79
Cc1nn(C(=O)Cn2cc([N+](=O)[O-])cn2)c(C)c1Cl,-1.3
COc1ccccc1N1CCN(C(=O)c2cc3sccc3n2C)CC1,1.5
CC1CCN(S(=O)(=O)c2csc(C(=O)Nc3ccccc3)c2)CC1,-0.15
CCc1nnc(NC(=O)CSc2nc(-c3ccccc3)nc3ccccc23)s1,0.67

# Reformatted as labelled records: four of the compounds above.
COc1cc(/C=C/c2ccc3cccc(O)c3n2)cc(Cl)c1OC
  Kir21 block: 0.25

CCc1nnc(NC(=O)CSc2nc(-c3ccccc3)nc3ccccc23)s1
  Kir21 block: 0.67

Cc1cc(C)cc(N(CC(=O)N2CCC(C)CC2)S(C)(=O)=O)c1
  Kir21 block: -0.66

Cc1nn(C(=O)Cn2cc([N+](=O)[O-])cn2)c(C)c1Cl
  Kir21 block: -1.3

# (next part)
SMILES,Kir21 block
COc1ccc(C(=O)Nc2ccccc2)cc1S(=O)(=O)NCc1ccco1,-1.6
S=C(NCCc1ccccc1)N/N=C/c1cccs1,-0.59
Cc1nccn1CCCN1C(=O)OC2(CCCCC2)C1(C)O (centres undefined),-0.05
Cc1nc(C(=O)NNC(=O)Nc2ccccc2)cs1,-0.54
CCn1c(=O)cc(OCC(=O)N2CCCC2)c2ccccc21,0.42
CCN(CC)CC(O)Cn1c2ccccc2c2ccccc21 (centres undefined),0.96
Cc1n(-c2ccccc2)c2ccc(Cl)cc2[n+]1CCO,-1.2
Nc1nc2sc3c(c2cc1C(=O)NCC(=O)O)CCCC3,0.39
O=[N+]([O-])c1cc(S(=O)(=O)NCCN2CCOCC2)ccc1Cl,-0.19
Cc1ccc(NC2CCCN(C(=O)c3snnc3C)C2)cc1C (centres undefined),-1.2
CCCCCCCc1c(O)nc(SCCN(C)C)[nH]c1=O,-0.04
N/C(=N\OC(=O)C12CC3CC(CC(C3)C1)C2)c1ccccc1,0.02
Cc1cc(C)nc(N2CCCC(C(=O)NCCC3=CCCCC3)C2)n1 (centres undefined),1.9
Cc1ccc(S(=O)(=O)N(Cc2cc3ccccc3[nH]c2=O)CC2CCCO2)cc1 (centres undefined),2
Cc1cccc(-n2c(SCC(=O)Nc3ncc(Cl)cc3Cl)nc3ccccc32)c1,0.01
CN(C)S(=O)(=O)c1ccc(C(=O)Nc2cccc(C(=O)O)c2)cc1,-0.26
CCOc1ccc2sc(NS(=O)(=O)c3ccc(N)cc3)nc2c1,0.87
CCCOC(=O)C1=C(C)OC23OC(N)=C(C#N)C12C(=O)c1ccccc13 (centres undefined),-1.1
Cc1cc(N)n(-c2nc(-c3cccnc3)nc3ccccc23)n1,0.04
CN(C)S(=O)(=O)c1ccc(C(=O)NCC(=O)N/N=C/c2ccccc2Cl)cc1,0.08
O=C(O)CCC(=O)N1N=C(c2ccco2)CC1c1ccco1 (centres undefined),0.67
COc1ccccc1/C=N\N=C(\N)c1ccccn1,-0.1
CC1(C)Cc2nc3oc4c(=S)nc[nH]c4c3cc2CO1,-0.02
COc1ccc(N2C(=O)CC(Sc3nc(C)cc(C)n3)C2=O)cc1OC (centres undefined),-0.55
OCCC1CN(Cc2cccn2-c2ccccn2)CCN1C1CCCC1 (centres undefined),-0.14
# The results go on.
SMILES,Kir21 block
CCCCC(=O)NC(c1ccco1)c1c(O)ccc2ccccc12 (centres undefined),-4.3
NC(=O)c1sc(=S)n(-c2ccc(Br)cc2)c1N,-2.3
C=CCNC(=S)NNC(=O)C(CCCC)CC(O)COCC(C)C (centres undefined),0.99
O=C(COc1ccc(Cl)cc1Cl)NCc1ccco1,1.7
COc1ccc(C(=O)/C=C/Nc2cccc(O)c2)cc1,-1.6
Cc1nc(C(=O)NNC(=O)c2ccccc2Cl)c(C(F)(F)F)o1,-0.37
O=C(Nc1cc(N2CCOCC2)ncn1)c1ccccc1,0.22
COC(=O)c1cc2nc(-c3ccc(OC)cc3)cc(C(F)(F)F)n2n1,-0.77
CC(=O)c1ccc(S(=O)c2ccccc2)cc1 (centres undefined),0.42
CN(C)Cc1c(C(=O)Nc2ccccc2)[nH]c2ccccc12,-0.85
COC(=O)c1ccc(NC(=S)NC(=O)c2c(Cl)cnn2C)cc1,0.02
C=CCOn1c(=O)c(-c2ccc(OC)c(OC)c2)[n+]([O-])c2ccccc21,0.47
O=CN1CCN(C(=O)C(=O)c2cn(CC(=O)N3CCCCC3)c3ccccc23)CC1,0.75
Cc1ccc(C)c(OCC(=O)Nc2ccccc2C(=O)NC2CC2)c1,-0.01
Cc1ccc(Nc2cnn(C34CC5CC(CC(CC(=O)O)(C5)C3)C4)c(=O)c2Cl)c(Cl)c1,2.1
Cc1c(NC(=O)c2cn3ccccc3n2)cccc1-n1cnnn1,1.5
COc1cc(Cc2cc(N)nc(N)n2)cc(OC)c1OC,-0.94
CC1(C)CC(=O)C/C(=N/NC(=O)c2ccc(-c3ccccc3)cc2)C1,0.27
O=C(CSC(=S)N1CCCCC1)c1ccccc1,1.8
O=C(NCCCc1ccccc1)c1ccccc1,-0.05
COc1ccccc1NS(=O)(=O)c1cc(NC(=O)CCNC(C)=O)ccc1C,-1.2
CC1(C)N(O)CC(c2cccs2)=[N+]1[O-],-0.84
O=C(Cc1ccc(Cl)cc1)Nc1ccccc1C(=O)Nc1ccc(C(=O)O)cc1,1.2
COc1ccc(-n2c(C)cc(=O)c3c2CC(C)(C)CC3=O)cc1,-1.3
CC(NC(=O)CC(O)(C(F)(F)F)C(F)(F)F)c1ccccc1 (centres undefined),2.2
# (further entries)
SMILES,Kir21 block
CCC(CC)C(=O)Nc1nnc(SCC(=O)NC(C)(C)C)s1,0.28
CC(=O)NC12CC3CC(C1)CC(C(=O)OCC(=O)c1ccc4c(c1)OCCO4)(C3)C2,-0.01
Cc1cccc(NC(NC(=O)c2ccccn2)C(Cl)(Cl)Cl)c1 (centres undefined),-0.91
CCOc1ccc(C2C(C(=O)c3ccc(C)o3)=C(O)C(=O)N2Cc2cccnc2)cc1 (centres undefined),-0.56
COC(=O)Nc1ccc(S(=O)(=O)N2c3ccccc3CCC2C)cc1 (centres undefined),0.01
CCOc1ccc2[nH]c(C)c(CN3CCCCCC3)c(=O)c2c1,1.4
CCOC(=O)N1CCN(S(=O)(=O)c2c(C)nc3sccn3c2=O)CC1,-0.62
Nc1nc(SCC(=O)Nc2ccccc2)[nH]c(=O)c1NC(=O)c1cccs1,0
Cc1cc(-n2nc(C)cc2C)n2ncc(-c3ccccc3)c2n1,1.6
CC1(C)CC2=C(CO1)C(=S)NC(c1ccccc1)N2CC1CCCO1 (centres undefined),-0.15
C1=Cc2ccccc2Nc2ccccc21,-0.45
O=C(CCNC(=O)Cn1ccc2ccccc2c1=O)NCCCN1CCN(c2ccccc2F)CC1,-0.01
CN(C)/C=N/c1sc2c(c1C#N)CCC2,-0.32
COC(=O)Nc1ncc(CN2CCCCC2)s1,0.98
O=C(CNC(=O)C1CCCCC1)NC1=NCCS1,-0.6
CCC1Oc2ccc(C)cc2N(CC(=O)NC2CCCCC2)C1=O (centres undefined),-0.2
